Ecoli growth: inhibitors of Escherichia coli growth; OD600, 23 h; active compounds read low; OD600 absorbance (concentration not given with the values); 330,000 compounds, 0.21% hits;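 active means OD600 absorbance below the run mean of sample wells minus 3.6 SD, in any replicate, cut at about 0.56 in these data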;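 further: stock transfer was 300 nL into about 60 µL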
LANA-H2B inh: blocks KSHV LANA binding to histone H2A/H2B. Q9QR71. cell-free LANA-H2A/H2B peptide, fluorescence polarization. inhibition, % (no concentration beside the values). 320,000 compounds, 0.6% hits; in the data active means inhibition mostly above about 10%, no sharp cut-off; inactive means mostly below about 6.7%;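 further: stock transfer was 7.5 nL into about 10 µL; 0% = median of vehicle wells and 100% = median of positive control wells; one replicate is shown; the record names a cut of 25% in any replicate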
UCH37 inh: blocks the human deubiquitinase UCH37. AID 588478. 330,000 compounds, 0.33% hits. Q9Y5K5. inhibition, % (concentration not given with the values). purified proteasome/UCH37, Ub-AMC cleavage fluorescence;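 active means mean of two replicates above 20%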;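 further: 0% = compound-free wells with enzyme and 100% = wells lacking proteasome; stock transfer was 100 nL into about 20 µL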
Target sequence (Q9Y5K5 whole entry, looked up): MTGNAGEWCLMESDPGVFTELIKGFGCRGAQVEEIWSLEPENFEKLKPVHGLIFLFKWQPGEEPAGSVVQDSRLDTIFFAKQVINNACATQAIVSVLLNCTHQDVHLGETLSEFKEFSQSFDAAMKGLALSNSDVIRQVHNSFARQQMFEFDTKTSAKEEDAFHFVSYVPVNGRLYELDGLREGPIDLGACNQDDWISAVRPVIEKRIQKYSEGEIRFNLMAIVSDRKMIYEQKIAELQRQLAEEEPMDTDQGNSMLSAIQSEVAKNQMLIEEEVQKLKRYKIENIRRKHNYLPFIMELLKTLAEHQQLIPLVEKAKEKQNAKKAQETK
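Material: human UCH37 enzyme supplied as purified proteasome complex / Amount: 0.15 nM proteasome as dispensed / Buffer or medium: pH 7.4 Tris-HCl (50 mM) with ovalbumin, ATP-MgCl2, DTT / Times: preincubation 30 min, reaction 25 min, room temperature / Technique: AMC fluorescence from Ub-AMC cleavage, excitation 355 nm, emission 460 nm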
Vif TR-FRET: HIV-1 Vif–A3G interaction blockers – biochemical, TR-FRET, GST-Vif 1-94, biotin-A3G peptide, dose response retest, primary screen (AID 1117319); TR-FRET GST-Vif / biotin-A3G peptide binding; higher % means a stronger effect; test concentration not given here; strong numbers were not always called active; one-dose inhibition, %; IC50 in µM for titrated hits; 260,000 compounds, 0.57% hits;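 active means above the screen mean plus three standard deviations and confirmed in dose response; inconclusive means results disagree or hit not tested in dose response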;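 further: Vif residues 1-94 fused to GST binding biotinylated APOBEC3G peptide 110-148; 0% = full assay without inhibitor and 100% = GST in place of GST-Vif; retest series ran down from 100 µM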
B2AR ag: activates human beta-2 adrenergic receptor causing internalization | P07550 | Am2.2-beta2AR cells, FAP receptor internalization, flow cytometry; reference of the scale not given here | response, % (no concentration beside the values) | 340,000 compounds, 0.43% hits | AID 504454;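 active means response above a set limit, near 3 SD of response in nonfluorescent compounds, cut at about 42% in these data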;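 further: stock transfer was 100 nL into about 11 µL; a reference agonist was the positive control; negative values mostly stem from fluorescent compounds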
Target sequence (P07550 whole entry, looked up): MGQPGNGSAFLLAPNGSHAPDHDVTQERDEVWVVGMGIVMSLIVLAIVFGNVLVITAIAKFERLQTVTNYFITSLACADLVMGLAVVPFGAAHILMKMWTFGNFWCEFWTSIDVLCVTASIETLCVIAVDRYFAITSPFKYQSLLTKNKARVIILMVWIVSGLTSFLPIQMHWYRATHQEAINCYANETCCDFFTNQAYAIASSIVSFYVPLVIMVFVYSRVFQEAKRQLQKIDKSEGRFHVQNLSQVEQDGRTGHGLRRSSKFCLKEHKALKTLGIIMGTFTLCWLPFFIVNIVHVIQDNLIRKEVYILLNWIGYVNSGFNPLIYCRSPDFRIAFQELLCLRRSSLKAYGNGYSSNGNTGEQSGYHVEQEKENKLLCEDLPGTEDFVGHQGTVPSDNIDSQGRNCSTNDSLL
A1 inh: inhibitors of the anti-apoptotic protein A1, read as caspase activation. MEF A1-2A-BIM cells, Caspase-Glo 3/7 luminescence, 3 h; percent of clofoctol response, vehicle zero. AID 2462. caspase activation, % (test concentration not listed). 330,000 compounds, 0.066% hits;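 active means over half of replicate activation scores above 10%, or exactly half above 10 with the replicate mean above 10; inconclusive means replicate mean below 10 yet half the replicates above 10; inactive means over half of replicates below 10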;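 further: wells of about 30 µL received 50 nL stock; many hits fall short of the cut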
HNF4A DNA FP: change in binding of human HNF4 alpha to DNA. P41235. 360,000 compounds, 0.3% hits. activity change, % at 10 µM. AID 1224865. HNF4a-FITC DNA binding, fluorescence polarization, 1 h; in the data active means activity change above about 30%, passing the limit was not always enough;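 further: controls were the assay level and a saturating level of protein; the project sought stronger binding though the title names inhibitors; some compounds called inactive have numbers as strong as hits; positive values seem to mean higher polarization but the record does not say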
The depositor's hits bear a star; ? = inconclusive; · = no result given; & = joins results of further samples.

SMILES	Ecoli growth	LANA-H2B inh	UCH37 inh	Vif TR-FRET	B2AR ag	A1 inh	HNF4A DNA FP
CC1(C)CC(=O)C2=C(C1)N(c1ccccc1)C(=O)CC2c1ccsc1 (stereo not given)	0.71	-5.6	5.3	0%	7	-0.5	-1.4
CCOc1ccc(-c2nnn(CC(=O)NCc3ccc(F)cc3)n2)cc1OCC	0.69	-5.5	2.1	1%	-2	-0.2	0.2
NC(=O)c1ccc(C(F)(F)F)cn1	0.71	-6.4	4.8	1%	-6	0.5	-4.8
O=C(c1ccccc1-c1ccccc1)N1CCCC1	0.67	-1.4	1.0	-5%	-2	2.1	-0.5
CCN(CC)CCCn1c(C)cc2c(c1=O)C(c1ccccc1)C(C#N)=C(N)O2 (stereo not given)	0.73	9.4	1.8	-4%&-3%	-4	0.5	1.2
O=C1Nc2ccccc2S/C1=C/Nc1cccc(Cl)c1	0.72	-2.1	0.7	?	-6	-1.7	1.7
O=C(OCC(=O)N1CCN(c2ccccc2)CC1)c1ccccc1OC(F)F	0.7	-2.8	3.9	·	2	-0.3	1.7
O=C(COC(=O)C1CCCCC1)NCc1ccc(Cl)cc1	0.65	6.1	0.3	-7%	7	-0.2	-1.7
Cc1cccc(C(=O)Nc2ccccc2SCC(=O)Nc2ccc(C)c(Cl)c2)c1	0.73	1.0	-0.1	26%	2	0.9	-1.7
O=C(CCCSc1nc2ccccc2[nH]1)N1CCN(c2ccc([N+](=O)[O-])cc2)CC1	0.75	-0.4	1.5	2%	14	0.4	1.4
C/C(N)=C(/C#N)C(=O)CSc1ccc2c(c1)OCCO2	0.74	-3.5	6.0	-3%	2	-1.5	1.9
COC(=O)C1C(=O)C=C(Nc2ccc(F)cc2)CC1c1ccc(OC)cc1 (stereo not given)	0.68	-2.6	3.0	·	-1	0.0	3.7
C(=C\c1ccc(/C=C/c2ccccc2)nn1)/c1ccccc1	·	2.2	·	-3%	·	-0.9	·
CCCC1CCC(c2ccc(C(N)=O)cc2)CC1 (stereo not given)	0.7	-5.0	0.6	0%	2	0.9	-1.7
CC1Nc2ncnc(N3CCOCC3)c2N(Cc2ccc(Cl)cc2)C1=O (stereo not given)	0.67	1.4	0.3	·	5	1.1	1.1
Cc1ccc2[nH]c(=O)c(CN(CCCO)C(C)c3nnnn3Cc3ccco3)cc2c1 (stereo not given)	0.67	-1.9	2.3	?	-6	0.7	3.1
O=C(COC(=O)c1ccccc1[N+](=O)[O-])NCCCc1ccccc1	0.67	1.1	1.7	4%	-5	0.0	1.9
CCN(CC)CCOCCOC(=O)C(CC)(CC)c1ccccc1	0.61	-1.4	1.6	19%	-1	0.2	-0.3
CCOC(=O)/C=C(\C)Sc1cc(O)c2ccccc2c1O	0.58	·	81*	26%	46*	·	-4.1
CC(C(=O)NCc1cccc(Cl)c1)N1C(=O)c2ccccc2C1=O (stereo not given)	0.7	3.8	-0.3	1%	-7	-0.5	-2.0
COc1cccc(/C=C/C(=O)OCC(=O)NCc2ccco2)c1OC	0.7	0.7	4.0	6%	-6	-0.1	-3.4
CCOc1ccc(NC(=O)CN(C)C(=O)CSCc2c(C)noc2C)cc1OCC	0.64	-0.8	1.6	4%	1	0.1	-2.4
Cc1cc(C)c(S(=O)(=O)N2CCN(C(=O)N(C)C)CC2)c(C)c1	0.7	-0.4	2.9	5%	3	2.2	2.4
CCCN(CCC)CC(O)COc1ccc([N+](=O)[O-])cc1 (stereo not given)	0.73	-2.2	1.7	1%	-2	-0.4	-1.5
COc1cccc(-c2nc(N3CCN(C)CC3)c3ccccc3n2)c1O	0.63	-7.2	8.3	·	-7	-0.6	-9.0
(list continues)
SMILES	Ecoli growth	LANA-H2B inh	UCH37 inh	Vif TR-FRET	B2AR ag	A1 inh	HNF4A DNA FP
COc1cc(CN2CCC(C(=O)N3CCN(c4ccccc4F)CC3)CC2)cc(OC)c1OC	0.65	-1.2	3.0	-1%	-11	0.5	-1.6
Cn1c(=O)[nH]c(=O)c2c1nc(Sc1ncccn1)n2CCCc1ccccc1	0.69	4.9	0.1	6%	0	-0.3	0.4
Cc1ccc(NC(=O)c2nnn(CC(=O)Nc3ccc4c(c3)OCO4)c2N)cc1C	0.69	-3.2	2.2	·	7	0.8	3.1
O=C(CNC(=O)c1ccc(Br)o1)NCc1ccc(Cl)cc1Cl	0.73	-1.2	0.4	·	5	0.7	-2.8
C=C(C)CSc1nnc([C@@H](NC(=O)OC(C)(C)C)C(C)CC)o1 (stereo not given in full)	0.69	2.4	1.7	4%	-1	0.3	11
COc1cc(C(=O)OCn2nnc3ccccc3c2=O)cc(OC)c1OC	0.73	-1.0	1.4	-2%	0	-0.2	2.3
O=C(C1=C[C@@H](c2ccccc2)C[C@@H](OCc2ccc(CO)cc2)O1)N1CCCCCCC1	·	-3.3	1.7	·	2	-0.6	0.2
Cn1c(COc2ccc3ccccc3c2)nnc1SCC(=O)OC1CCCCC1	0.67	-1.5	4.5	7%	6	0.0	-2.1
O=C(NCc1ccc(F)cc1)NC(=O)c1ccc(Cl)cc1	0.67	2.1	-1.6	-1%	2	-0.4	-0.6
Oc1ccc(N2CCN(Cc3ccc(OCCCN4CCCCC4)cc3)CC2)cc1	0.68	-2.4	1.8	-4%	17	0.4	4.6
CCNC(=S)Nc1ccc(-c2nc3ccccc3[nH]2)cc1	0.67	4.1	3.4	-5%	-10	-1.0	2.0
O=C(O)Cc1ccccc1C(=O)O	0.69	-1.5	0.7	0%	-1	0.5	3.3
COc1cccc(NC(=O)c2ccc3c(c2)OCO3)c1	0.65	2.4	0.8	·	6	-6.7	1.0
Clc1ccc(CSc2ccc(-c3ccccn3)nn2)cc1	0.7	1.2	-0.5	-3%	-6	-1.7	3.0
COC(=O)CSc1nc(-c2ccc(F)cc2)cc(C(F)(F)F)n1	0.69	1.9	3.8	-19%	2	0.0	3.6
CCOC(=O)c1c(C)c(C(=O)NCc2ccc3c(c2)OCO3)c(C)n1CC	0.71	-5.0	3.3	5%	-4	0.2	0.6
O=C(NCc1ccco1)c1ccc(Cl)cc1[N+](=O)[O-]	0.65	-0.5	3.6	-4%	-2	-0.9	-3.1
CN(c1ccccc1C(=O)NCc1ccccn1)S(C)(=O)=O	0.73	1.1	5.4	-1%	-4	0.1	-5.2
Cc1occc1C(=O)Nc1cccnc1	0.75	-0.8	1.7	6%	-2	0.4	0.3
CN1/C(=C\C(=O)COC(=O)CNC(=O)c2ccc3ccccc3c2)C(C)(C)c2ccccc21	0.67	-4.9	-13	2%	-14	0.2	11
CCOc1ccc(OCc2ccc(C(=O)Nc3cccc(C)n3)o2)cc1	0.69	-4.6	-8.6	1%	-10	-0.5	1.8
O=C(NCc1ccccc1)N1CCN(c2ccccc2)CC1	0.65	-7.7	0.6	·	6	0.5	3.8
O=C(COC(=O)Cn1cnc2ccccc2c1=O)Nc1ccccc1Sc1ccc(Cl)cc1	0.68	-2.3	2.2	-5%	4	0.2	-3.3
Cc1ccnc(NC(=O)CNC(=O)c2ccc(Br)o2)c1	0.68	-0.8	0.8	3%	-10	0.9	2.5
O=C(Nc1ccccc1)N(C1=NCCCCS1)c1cccc2ccccc12	0.64	6.8	-5.5	5%	8	-4.9	2.2

Brought forward from above: 2 entries; new compounds follow.
SMILES	Ecoli growth	LANA-H2B inh	UCH37 inh	Vif TR-FRET	B2AR ag	A1 inh	HNF4A DNA FP
Cc1ccnc(NC(=O)CNC(=O)c2ccc(Br)o2)c1	0.68	-0.8	0.8	3%	-10	0.9	2.5
O=C(Nc1ccccc1)N(C1=NCCCCS1)c1cccc2ccccc12	0.64	6.8	-5.5	5%	8	-4.9	2.2
CCCCCCCCn1ccc(=N)cc1	0.61	4.8	0.9	·	7	-1.2	-0.4
Cc1cc(Nc2c(C)n(C)n(-c3ccccc3)c2=O)n2c(nc3cc(F)c(F)cc32)c1C#N	0.65	1.0	-1.5	3%	·	2.3	·
N/C(=N\OC(=O)CCC1CCCC1)c1cccnc1	0.65	-1.9	-0.5	·	2	-0.5	2.9
O=C1c2ccccc2C(=O)N1CCCc1cn(C[C@H]2CC[C@H](Cn3cc(CCCN4C(=O)c5ccccc5C4=O)nn3)O2)nn1	0.67	·	-0.3	-3%	4	·	-2.3
Cc1ccc(S(=O)(=O)N2CCCC(c3nnc4n3-c3ccccc3SC4)C2)cc1 (stereo not given)	0.76	-3.3	-0.4	-3%	6	0.1	-1.4
Cc1cc(N2CCN(c3ccccc3)CC2)nc(NCc2ccccc2)n1	0.72	-2.3	3.6	-6%	15	-1.5	3.6
COc1ccc(OC)c(C2NC(=O)NC(C)=C2C(=O)OC2CCCCC2)c1 (stereo not given)	0.67	1.3	-37	1%	-13	1.0	1.8
Cc1ccc(Cn2nnc3c(=O)n(CC(=O)OCc4ccccc4)cnc32)cc1	0.65	11	1.7	·	19	0.4	-1.3
Clc1ccc(SCc2cc(-c3ccc(Cl)cc3)on2)cc1	0.8	0.0	-2.1	-3%	-1	-0.7	-1.5
O=C(Cc1ccc(Cl)cc1Cl)Nc1ccncc1Cl	0.69	-0.5	2.8	·	-3	-0.8	2.5
O=C(O)c1ccc(/C=C/C(=O)c2ccc3c(c2)OCCCO3)cc1	·	2.2	·	·	4	-7.7	-1.1
S=C1CCC(c2ccc(Br)cc2)=NN1c1ccccc1	0.64	-1.4	6.9	·	10	1.0	1.4
Cc1ccc2nc(Nc3ccccc3)cc(C)c2c1	0.57	-6.8	-56	-4%	0	-0.3	0.6
CC1(C)NC(=O)N(CC(O)CN2C(=O)NC(C)(C)C2=O)C1=O	0.66	-0.9	5.0	4%	1	-0.7	-4.7
N#CC1(NC(=O)CSc2nc3ccc([N+](=O)[O-])cc3s2)CCCCC1	0.67	-5.1	6.1	4%	5	-0.2	-4.7
Cc1nc2ccc(F)cc2cc1C(=O)Nc1ccc(Cl)c(Cl)c1	0.69	5.0	1.4	·	1	0.0	4.4
CCOc1ccc(C(O)(c2ccccc2)C(CN2CCCC2)c2ccccc2)cc1 (stereo not given)	0.71	-0.2	1.9	-7%	7	-0.1	1.8
CN(C)CCn1c2c(c(SCC(=O)Nc3ccc4c(c3)OCCO4)nc1=O)CCCC2	0.68	-0.9	3.8	-9%	-4	-0.7	0.6
O=C(NCCc1ccc(C(F)(F)F)cc1)c1ccc(Cl)nc1	0.67	-2.0	1.5	-7%	-8	-0.7	1.4
COc1cc(NC2=Nc3cccc4cccc2c34)cc(OC)c1OC	0.67	-0.4	5.7	-1%	2	0.5	9.4
Cc1cc(C)c(C)c(S(=O)(=O)N2CCC(C(=O)NCc3ccco3)CC2)c1C	0.71	-0.7	5.1	-5%	0	0.0	-1.9
COc1cccc(/C=N/NC(=O)c2cnccn2)c1	·	-2.1	·	·	0	-0.7	-3.8
COc1cnc(-c2ccccn2)nc1N(C)c1ccccc1	·	3.2	·	·	-10	-0.6	-0.6
Cc1cc(C(=O)CCC(=O)N(C)CC(=O)Nc2ccc(OC(F)(F)F)cc2)c(C)s1	0.67	·	-0.5	7%	-8	·	3.2
CCn1cc(Br)c(C(=O)Nc2ccc(F)cc2F)n1	0.67	-3.6	7.0	·	-9	-1.2	-0.8
CCNS(=O)(=O)c1c(C)cc(C)c(N(C)S(=O)(=O)c2ccccc2)c1C	0.69	1.2	0.6	3%	0	1.1	-0.9
C/C(=N\NC(=O)c1ccc(N(C)C)cc1)c1ccc(C)c(C)c1	·	0.7	·	19%	0	0.3	1.2

Source: PubChem BioAssay
